PINK1 expr mod – PINK1 expression modulation. PINK1 immunofluorescence, high-content cytometry, 24 h. Potency, µM (titrated, usually from 76.6 µM), for the others: at the highest dose activation (PINK1 increase), hits mostly activators. 410,000 compounds, 0.2% hits. AID 624263; active = well fitted activation curve with a large enough effect; inconclusive = small, poorly fitted or top-dose-only effect; inactive = flat fitted curve, though single readings scatter; cell line not stated here;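 note: potency is the fitted concentration of half-maximal effect; % of control where 0% means no effect; nearly all actives have a fitted effect of over 65% in size; a mitochondrial uncoupler was the plate control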
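PINK1 protein, normally rapidly degraded, was detected by immunofluorescence after 24 hour compound treatment of a stable cell line. Titration data (5 concentrations) came from laser-scanning cytometry, with CCCP-treated wells as controls.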
ClpP mod – qHTS Assay for Activators of ClpP | ATP-dependent Clp protease proteolytic subunit (Bacillus subtilis (strain 168)), P80244 | purified B. subtilis ClpP, FRET peptide cleavage, 20 min | Potency, µM (doses to about 57.5 µM), for inactives: at the highest dose activity change, negative = active | 340,000 compounds, 1.9% hits | AID 651965, 2013; active = well fitted falling curve with a large enough effect; inconclusive = small, poorly fitted or top-dose-only effect; inactive = no such curve, though single readings can be large or run the other way; note: potency is the fitted concentration of half-maximal effect; the source files actives as falling curves though it sought activators and does not explain the sign; nearly all actives have a fitted effect of over 65% in size; many hits overshoot -100%
Target sequence (P80244 whole entry, looked up): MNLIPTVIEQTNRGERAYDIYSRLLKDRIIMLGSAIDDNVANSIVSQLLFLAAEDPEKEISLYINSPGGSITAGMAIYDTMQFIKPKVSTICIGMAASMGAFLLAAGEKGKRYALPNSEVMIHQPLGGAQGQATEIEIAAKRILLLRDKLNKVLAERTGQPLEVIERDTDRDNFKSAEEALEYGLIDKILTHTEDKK
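Buffer: 100 mM Tris/HCl pH8, 100 mM KCl, 0.05% low protease BSA, 2.5% glycerol, 0.01% Tween-20. ClpP 10 microg/mL final; 20 min RT; delta FRET normalized to ADEP and DMSO controls.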
gsp antagonist – antagonizes gsp, the McCune-Albright syndrome mutation; gsp-mutant cells, cAMP HTRF, 30 min; control for the full effect not named in the record; Potency, µM (highest dose often 76.9 µM), for the others: at the top dose activity change, negative = inhibition, actives largely listed as inhibitors; 340,000 compounds, 0.4% hits; AID 624288; active = falling curve of any shape with a large fitted effect; inconclusive = falling curve, mostly with a smaller effect; inactive = flat or rising curve; cell line not stated here;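 note: intracellular cAMP measured with PDE inhibitor Ro 20-1724 present during compound exposure; potency is the fitted concentration of half-maximal effect; % is set by controls: 0 for no effect and ±100 for the full control effect; nearly all actives have a fitted effect of over 65% in size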
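Cells in G418 medium, seeded 16-24 h, 37C; buffer exchange to DPBS + 1 mM CaCl2, 0.5 mM MgCl2, 0.05% BSA; cpds in DMSO + […] (300 uM stock), 30 min 37C; HTRF cAMP detection.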
D2 ag – human D2 receptor agonism in beta-arrestin assay; DiscoveRx PathHunter D2 beta-arrestin, luminescence, 90 min; 100% = 57 uM dopamine signal; activation, % (no concentration beside the values); 360,000 compounds, 0.084% hits; AID 624465; in the data active = activation above about 40%; inconclusive = about 15% to 40%; inactive = below about 15%; note: compound concentration not given in the record; the text of the record calls up to 30% inactive
Target sequence (P14416 whole entry, looked up): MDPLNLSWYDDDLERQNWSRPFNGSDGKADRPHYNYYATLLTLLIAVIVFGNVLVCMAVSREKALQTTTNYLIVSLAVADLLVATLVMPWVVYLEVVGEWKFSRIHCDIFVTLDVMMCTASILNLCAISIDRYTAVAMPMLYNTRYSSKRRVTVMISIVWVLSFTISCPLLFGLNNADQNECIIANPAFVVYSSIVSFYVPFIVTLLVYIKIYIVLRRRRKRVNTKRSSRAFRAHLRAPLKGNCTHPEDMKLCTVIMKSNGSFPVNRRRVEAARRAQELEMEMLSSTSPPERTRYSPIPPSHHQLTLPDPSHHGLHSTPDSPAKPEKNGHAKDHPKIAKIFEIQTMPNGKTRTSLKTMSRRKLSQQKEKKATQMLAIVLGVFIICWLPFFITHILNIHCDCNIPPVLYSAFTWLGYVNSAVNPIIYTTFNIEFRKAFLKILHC
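Agonist mode: compounds alone added to overnight-plated D2 PathHunter cells for 90 min at 37 C, with 57 uM final dopamine (EC100) defining full response. Beta-arrestin recruitment detected by chemiluminescent reagent, read after 1 h at ambient temperature.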
Sfp inh – blocks B. subtilis Sfp PPTase activity; Potency, µM, inactives show max response, negative = inhibition, usual class: inhibitors; 310,000 compounds, 3.5% hits; Q9F4F7; AID 1490; Biochemical Sfp PPTase activity, qHTS; active = well fitted inhibition curve with a large enough effect; inconclusive = small, poorly fitted or top-dose-only effect, or another doubt; inactive = no such curve, though single readings can be large or run the other way;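 note: the enzyme is Sfp with the accession as filed and its product quenches rhodamine fluorescence; potency is the fitted concentration of half-maximal effect; 0% = enzyme reaction without inhibitor and -100% = no enzyme wells; top concentration of the series not given in the record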
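Sfp 15 nM + cpd, 15 min RT; start w/ rhodamine-CoA 5 uM, BHQ-2-YbbR 12.5 uM (final); 50 mM Hepes pH 7.6, 10 mM MgCl2, 0.01% NP-40, 0.01% BSA; read 525/598 nm at 0 and 30 min.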
gsp agonist – activates gsp, the McCune-Albright syndrome mutation | gsp mutant cells, cAMP HTRF, 30 min; control for the full effect not named in the record | 340,000 compounds, 0.13% hits | Potency, µM (top dose mostly 76.9 µM), for the others: top-dose activation (cAMP increase), hits mostly activators | AID 624287; active = well fitted activation curve with a large enough effect; inconclusive = small, poorly fitted or top-dose-only effect, or another doubt; inactive = no such curve, though single readings can be large or run the other way; cell line not stated here;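 note: phosphodiesterase inhibitor Ro 20-1724 added with compounds to block cAMP breakdown; potency is the fitted concentration of half-maximal effect; nearly all actives have a fitted effect of over 60% in size; about a fifth of the inactives were tested at one dose only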
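Cells in DMEM/10% FBS with G418 were pretreated with compounds in DMSO plus […] (300 uM stock) for 30 min at 37C. cAMP was measured by HTRF (cAMP-d2 plus anti-cAMP antibody-K) after 30 min at room temperature.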
Menin MLL FP FL – displaces fluorescein MLL peptide from human menin; 290,000 tested, under 10 active; FP activity change, % at 61.4 µM; Fluorescence polarization, fluorescein-MLL peptide displacement from menin; inconclusive = falling polarisation curve, or a change in total fluorescence; inactive = total fluorescence flat and polarisation flat or rising; no compound was filed as active; the % refers to the polarisation; negative = inhibition;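 note: % of control where 0% means no effect; inhibitors lower the polarisation; unlabelled MLL peptide was the positive control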
* hit, by the source's call; ? = inconclusive; nt = no result given; & = joins results of further samples; [ ] = another dose, or the depositor's remark.

SMILES	PINK1 expr mod	ClpP mod	gsp antagonist	D2 ag	Sfp inh	gsp agonist	Menin MLL FP FL
CCOC(=O)N1CCN(C(=O)/C=C/c2ccc(OC)cc2)CC1	-0.8%	-1.2%	0%	6.0	17%	-5%	0.4
O=C(c1ccc(Cl)cc1)N1CCN(CCOc2ccccc2)CC1	-0.2%	nt	5%	?	9%	-2%	-0.2
O=C(Cn1cnc([N+](=O)[O-])c1)Nc1ccc(F)c(Cl)c1	0.1%	-0.7%	15%	-3.0	-19%	-62%[inhibitor]	5.9
COc1ccc(COc2ncnc3ccc(Br)cc23)cc1F	-2.0%	1.7%	9%	-0.3	-5%	-26%[15.4 µM]	9.3
Cc1ccnc2nc(C(=O)OCC(=O)NC3CCCC(C)C3C)nn12 (stereo not drawn)	-1.4%	-4.0%	12%	6.5	nt	-1%	nt
O=C(COc1ncnc2ccccc12)NCc1ccco1	-1.7%	nt	nt	0.4	-11%	7%[15.4 µM]	1.7
Cc1ccc(CN=c2c([N+](=O)[O-])nn(-c3ccc(Cl)cc3)n2O)cc1	1.6%	0.6%	-5%	1.4	?	1%	2.5
CCCN(CCC)CC(O)COc1ccccc1C(=O)Nc1ccccc1 (stereo not drawn)	-0.4%	-4.6%	6%	1.1	13%	-15%[15.4 µM]	0.4
Cc1ccccc1N1CCN(CC(=O)Nc2ccccc2C(=O)NC2CC2)CC1	0.7%	-0.3%	-25%	-8.4	nt	-15%	nt
Cc1cc(C)cc(NC(=O)CSc2ccc(-c3ccccn3)nn2)c1	12%	1.8%	-18%	2.5	-3%	8%[15.4 µM]	nt
CCN1CCN(c2ccc(S(=O)(=O)N3CCOCC3)cc2NC(=O)c2ccc(F)cc2Cl)CC1	-0.5%	nt	11%	-1.2	nt	-2%[15.4 µM]	nt
Nn1cnnc1SCC(=O)Nc1ccc2c(c1)OCCO2	?	0.0%	-1%	-1.4	16%	-55%[inhibitor]	6.4
O=C(CSCc1ccc(Cl)cc1)NCc1ccc2c(c1)OCO2	-1.5%	-0.4%	0%	-1.6	-2%	-34%[inhibitor]	-1.2
COC(=O)[C@H](CCSC)NS(=O)(=O)c1ccccc1Br	-1.1%	0.7%	5%	-2.6	23%	1%	0.9
O=C(NCc1cccs1)C1CCN(c2nccs2)CC1	-0.7%	0.2%	9%	-4.6	0%	-25%	2.0
CN(Cc1ccccc1)c1nc2c(c(=O)[nH]c(=O)n2C)n1Cc1ccccc1F	-0.1%	0.3%	-11%	-1.4	10%	-34%[inhibitor]	-6.0
Cc1nn(CC(=O)Nc2ccc3c(c2)nc2n3CCOC2)c(=O)c2ccccc12	23%[38.3 µM]	-2.6%	-2%	2.1	9%	-29%	4.5
CCOC(=O)c1sc(=S)n(CC)c1NC(=O)C1CC1	1.2%	3.9%	1%	1.5	5%	-38%[inhibitor]	3.1
O=C(CSc1nnc(Cc2cccs2)n1Cc1ccco1)Nc1ccc(Cl)cc1Cl	-2.3%	0.1%	-10%	-5.6	28µM*	-12%	2.6
S=C(NCCc1ccc(Cl)cc1)Nc1ccc(Cl)cc1Cl	?	-1.0%	?	1.2	-20%	?	3.4
CCNCc1cc(Cl)cc(OC)c1OC(C)C	0.6%	1.0%	8%	0.0	2%	-3%	6.0
O=C(O)c1ccc2c(=O)n3c(nc2c1)/C(=C/c1ccccc1Br)CC3	8.9%	-11%	?	2.8	23%	10%[15.4 µM]	5.4
CCOC(=O)c1cc2c(N)c(C(=O)c3ccc(Br)cc3)sc2[nH]c1=O	0.8%	-3.3%	2%	-2.1	28µM*	-56%[inhibitor]	4.6
CCc1nnc(NC(=O)C2CC(=O)N(c3ccc(C)cc3)C2)s1 (stereo not drawn)	-6.8%[38.3 µM]	-5.6%	-2%	1.8	50µM*	0%	-1.8
Fc1ccc(CCNC(=S)Nc2ccc(F)c(Cl)c2)cc1	14µM*	-0.1%	-20%	1.0	6%	-10%[15.4 µM]	-1.6
Carrying on.
SMILES	PINK1 expr mod	ClpP mod	gsp antagonist	D2 ag	Sfp inh	gsp agonist	Menin MLL FP FL
c1ccc2c(c1)CCN(c1ncnc3nc[nH]c13)C2	-0.1%&0.0%&1.6%	0.1%&-5.0%&-5.3%	6%	1.1	-6%	23%	-1.0
Cc1cc(C)cc(NC(=O)Cn2nnc(C(=O)NCc3cccs3)c2N)c1	-0.5%	0.1%	1%	-2.6	6%	?	nt
O=C(Cc1ccc(Cl)cc1)NCCN1CCCC1	-0.6%	1.1%	4%	-3.1	11%	-5%	2.5
CC(C)(C)c1ccc(C(=O)NNC(=O)CCC(=O)Nc2ccccc2)cc1	0.4%	-0.8%	10%	5.1	9%	-1%	nt
Cc1ccc(OCC(=O)NCCNC(=O)c2ccccn2)cc1	0.1%	nt	6%	-2.9	20%	?	-0.2
O=C(N1CCCCCC1)N1CCN(C(=O)N2CCCCC2)CC1	0.1%	?	5%	-1.8	-5%	12%	-1.1
O=C(Nc1nnc(CCc2ccccc2)s1)c1cccs1	-2.0%	-2.7%	7%	-1.6	13%	-1%	-1.6
CCOC(=O)C1=CCN(S(=O)(=O)c2ccccc2C)C1c1ccc(Cl)cc1 (stereo not drawn)	6.0%	-3.7%	nt	-4.6	nt	nt	nt
O=C(Cc1cccc2ccccc12)Nc1nc(-c2cccc([N+](=O)[O-])c2)cs1	3.1%	-2.2%	8%	-4.0	16%	6%	6.4
O=C(CSc1ccccc1F)NC(=O)NC1CCCC1	0.5%	0.7%	nt	-0.2	nt	?	nt
CC(C)CCOc1ccc(C(=O)NCC(c2ccco2)N(C)C)cc1 (stereo not drawn)	0.8%	nt	8%	-0.3	3%	6%	1.0
N#CC1=C(O)C(c2ccccc2)n2c1nc(=O)c1ccccc12 (stereo not drawn)	3.5%	18µM*	7%	-0.7	-2%	15%	?
O=C(COC(=O)c1cccc(F)c1)NCCC1=CCCCC1	1.1%	nt	3%	0.4	nt	-15%	nt
Cc1ccc(C2NC(=S)NC3=C2N2CCC3CC2)cc1 (stereo not drawn)	-1.5%	-3.1%	-1%	-1.2	-4%	23%	4.1
N#C/C(=C\c1ccc[nH]1)S(=O)(=O)c1ccccc1	2.6%[38.3 µM]	-1.4%	-6%	-2.3	-12%	11%	-2.5
CCN(CC(=O)Nc1ccc(NC(C)=O)cc1)C(=O)COc1ccc2ccccc2c1	2.6%	-1.8%	-9%	3.2	nt	6%	nt
Cc1sc(NC(=O)CCCC(=O)O)c(C#N)c1C	0.2%	0.3%	13%	-1.1	8%	-31%[inhibitor]	5.4
COc1ccc(F)cc1-c1cc(NC=O)c2ncc(-c3cc(OC)c(OC)c(OC)c3)n2c1	2.0%	?	nt	-3.9	nt	nt	nt
O=C1NN(c2cccc(Br)c2)C(=O)/C1=C/c1ccc(-c2cc([N+](=O)[O-])ccc2O)o1	1.3%	0.5%	0%	-3.2	16%	-18%	1.8
COc1ccc(C2=NCCNC(C(F)(F)F)=C2)cc1	0.2%	-1.9%	10%	-3.4	9%	16%[15.4 µM]	2.3
CCN(C[C@H]1N[C@@](CC)(C(=O)OC)[C@H]2C(=O)N(C)C(=O)[C@@H]12)C(C)=O	-1.4%	-0.1%	11%	-1.3	nt	nt	nt
CC(C)(C)c1ccc(-c2nnc(SCCN3C(=O)c4ccccc4C3=O)o2)cc1	2.0%	-0.8%	-4%	0.8	-6%	-35%[inhibitor]	-1.0
CCOC(=O)Cc1csc(NC(=O)c2ccoc2C)n1	?	1.1%	-14%	-2.5	16%	-4%	3.6
O=C(O)C(=O)/C(=C\c1ccc([N+](=O)[O-])cc1)c1ccc2ccccc2n1	2.3%	-0.9%	-14%	-3.6	45µM*	-59%[inhibitor]	?
CCOC(=O)CSc1nnc(CNC(=O)Cc2ccccc2)n1-c1ccccc1OC	-2.6%[38.3 µM]	-1.5%	-3%	-1.5	13%	-5%	-0.3
Next structures follow.
SMILES	PINK1 expr mod	ClpP mod	gsp antagonist	D2 ag	Sfp inh	gsp agonist	Menin MLL FP FL
CCn1nc(C)cc1C(=O)NC1CCCc2c1cnn2-c1cc(F)cc(F)c1 (stereo not drawn)	?	-0.9%	-4%	0.9	14%	6%	nt
O=C(Nc1cccc(S(=O)(=O)N2CCCCC2)c1)c1cc([N+](=O)[O-])ccc1N1CCOCC1	1.2%	-2.2%	7%	-0.3	nt	26%	nt
Cc1ccc(S(=O)(=O)NCC(=O)OCC(=O)N2CCc3ccccc32)cc1	-1.3%	1.6%	-19%	-1.3	15%	0%	4.9
COCC(=O)NCCc1nc(-c2ccccc2)cs1	-1.3%	0.8%	3%	-0.7	20%	-20%	-2.1
CC1(C)CC(=O)C2=C(C1)N(CCN1CCOCC1)C1=C(C(=O)CC(C)(C)C1)C2c1cccc(Cl)c1	-0.2%	?	-20%	-1.5	0%	8%	-1.9
CCCn1nc(C(=O)Nc2ccc3nc(N4CCOCC4)sc3c2)ccc1=O	-1.7%	-2.5%	?	7.6	nt	0%	nt
COc1ccc(NC(=S)N2CCC(C(=O)c3ccc(F)cc3)CC2)cc1	-1.1%	-0.1%	-13%	6.4	nt	-52%[inhibitor]	nt
O=C(COC(=O)c1ccccc1Br)Nc1nnc(-c2ccccc2)o1	2.8%	-4.2%	6%	2.3	nt	-20%	nt
O=c1[nH]c2ccccc2n1CCCSc1cnc2ccccc2n1	0.5%	1.0%	-16%	-4.2	-8%	9%	0.9
CC(NC(=O)CSc1ncnc2nc[nH]c12)c1ccccc1 (stereo not drawn)	-2.4%	-0.1%	5%	3.1	21%	29%	-0.7
Oc1ccccc1CNc1ncc(Br)cc1Br	3.2%	-2.0%	3%	0.3	-22%	-68%[inhibitor]	2.5
CC(C)(O)C(=O)NNC(=S)Nc1ccc(F)c(Cl)c1	-1.2%	nt	5%	4.9	1%	5%[15.4 µM]	-2.8
O=C1CC(C(=O)NCc2ccccc2)C2(CCCC2)O1 (stereo not drawn)	0.8%[38.3 µM]	-0.4%	0%	-1.5	-4%	-8%	3.1
Cc1ccc([N+](=O)[O-])c2c1C(N1CCCC1)C(C)(C)O2 (stereo not drawn)	2.8%	-1.8%	-15%	-2.9	1%	-22%	2.5

Compound activity: PubChem, National Center for Advancing Translational Sciences (NCATS)
